Screening data from PubChem.
PMP22 txn prim = Cell-based coincidence reporter assay to measure PMP22 gene transcription in S16 Pmp22-F2sN cells - Primary screen. Potency, µM (highest dose often 57.5 µM), without a hit: at the top dose activity change, negative = inhibition, most hits filed as inhibitors. S16 Pmp22-F2sN Schwann cells (luciferase reporters placed in the Pmp22 gene), FLuc/NLuc coincidence luminescence, 24 h. 2% of 43,000 active; active = clear falling dose curves in both reporters; inconclusive = both reporters move, but less clearly or upward; inactive = either reporter flat; the % is the NLuc reporter signal; further: on the % scale 0 is the no-effect control and ±100 the full control effect; some results filed as inactive show a strong effect at the top dose
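Reporter cells (S16 Pmp22-F2sN, 500–1,000 per well) exposed to compounds for 24 h, 37C, 5% CO2; lysis with FLuc read after 10 min, then Stop&Glo and NLuc read after 10 min.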
HTT promoter inh = Primary qHTS for Identification of Small Molecule Inhibitors of Huntingtin Promoter Activity; HEK293 HTT promoter firefly luciferase reporter (activity 0% = vehicle and -100% = no light), 24 h; 0.93% of 48,000 active; Potency, µM (doses to about 57.5 µM), inactives show at the top dose activity change, negative = inhibition, actives largely listed as inhibitors; active means well fitted inhibition curve with a large enough effect; inconclusive means small, poorly fitted or top-dose-only effect; inactive means no such curve, though single readings can be large or run the other way; further: nearly all actives have a fitted effect of over 50% in size
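HEK293 Fluc reporter, 2,500 cells/well, 24 h pre-culture; cpds up to 57.5 uM final, 24 h 37 degrees C; Dual-Glo, 10 min RT; normalized vehicle = 0%, zero RLU = -100%.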
* = called active by the depositor; ? = inconclusive; . = not tested or not shown; & = joins results of further samples; [ ] = dose if it differs, or a comment. Potency means the concentration at half of the fitted maximal effect. An excerpt. The share of hits here may be higher or lower than overall.

SMILES	PMP22 txn prim	HTT promoter inh
CCC(C(N)=O)N1CCCC1=O (stereo not drawn)	.	6.1%
CCN(CC)CCN1C(=O)CN=C(c2ccccc2F)c2cc(Cl)ccc21	.	2.8%
CC(=Cc1csc(C)n1)[C@@H]1C[C@H]2O[C@@H]2CCC[C@H](C)[C@@H](O)[C@@H](C)C(=O)C(C)(C)[C@@H](O)CC(=O)O1	.	-10.1%
O=C1NCN(c2ccccc2)C12CCN(CCCOc1ccc(F)cc1)CC2	.	1.3%
CCOC(=O)C1(c2ccccc2)CCN(CCc2ccc(N)cc2)CC1	.	-5.8%
CNC(=O)NC(O)C(Cl)(Cl)Cl (stereo not drawn)	.	1.2%
CC(Cc1ccccc1)NCCn1cnc2c1c(=O)n(C)c(=O)n2C (stereo not drawn)	.	-5.0%[116 µM]
O=C(Nc1ccc2c(c1)OCCO2)c1cccn(Cc2cccc([N+](=O)[O-])c2)c1=O	-18.3%	-28.1%
CCCN1CCC[C@@H]2Cc3[nH]ncc3C[C@H]21	.	8.0%
COc1ccc(C(=O)Nc2ccc(Cl)cc2C(=O)c2ccccc2)c(OC)c1	-15.6%	-24.7%
O=C(Nc1ccccc1)N(Cc1ccc2c(c1)OCO2)C1CCN(Cc2ccccc2)CC1	-0.5%	-15.9%
COc1ccc(OCC(=O)N2CCN(CCc3ccccn3)CC2)cc1	8.3%	47.6%[activator][11.5 µM]
CC(C)(C)NCC(O)c1ccccc1Cl (stereo not drawn)	.	4.7%
Cc1ccccc1-n1nc(C)c2c1NC(=O)CSC2c1ccc(Cl)cc1 (stereo not drawn)	?	?
COc1ccc(OCC(=O)N2CCN(Cc3cccc(OC)c3OC)CC2)cc1	-3.6%	-29.6%
COc1cc(C(c2c(O)c3ccccc3oc2=O)c2c(C)n(C)n(-c3ccccc3)c2=O)ccc1O (stereo not drawn)	-18.7%	-2.7%
COc1ccc(OC)c(CC(C)N)c1 (stereo not drawn)	.	-4.2%[116 µM]
CN(C)[C@@H]1C(=O)C(C(N)=O)=C(O)[C@@]2(O)C(=O)C3=C(O)c4c(O)cccc4[C@@](C)(O)[C@H]3C[C@@H]12	.	-5.7%&4.9%
COc1ccc(CN2CCNCC2)c(OC)c1OC	.	1.8%
Cc1cccc(-n2c(/C=C/c3c(C)[nH]c4ccccc34)nc3ccccc3c2=O)c1	?	-7.6%
Nc1c(C(=O)Nc2cccc(Br)c2)sc2nc3c(cc12)N1CCC3CC1	?	?
CC(C)N(CCNC(=O)CN1CCCC1=O)C(C)C	.	-1.3%
CCS(=O)(=O)C(C)(C)S(=O)(=O)CC	.	-2.7%
C[C@](O)(COc1ccc(C#N)cc1)C(=O)Nc1ccc(C#N)c(C(F)(F)F)c1	.	?
C=CCC1(C(C)CC)C(=O)NC(=O)NC1=O (stereo not drawn)	.	6.3%
CC(C)(O)C=CC(=O)[C@](C)(O)[C@H]1[C@H](O)C[C@]2(C)[C@@H]3CC=C4[C@@H](C=C(O)C(=O)C4(C)C)[C@]3(C)C(=O)C[C@@]12C	.	?
c1cc2c(c(N3CCNCC3)c1)OCCO2	.	7.9%
CCc1ccc(OCC(=O)N2CCN(CCc3ccccn3)CC2)cc1	?	-13.9%
c1ccc2nc(N3CCNCC3)ccc2c1	.	1.8%
COc1ccccc1C1SCC(=O)Nc2c1c(C)nn2-c1cccc(C)c1 (stereo not drawn)	-13.0%	-35.1%
CC(C)C(Br)C(=O)NC(N)=O (stereo not drawn)	.	-5.5%
COc1ccc(/C=C/c2nc3ccccc3c(=O)n2-c2ccc(C)cc2)cc1O	-1.4%	?
COc1ccc2c3c1O[C@H]1[C@H](O)CC[C@H]4[C@@H](C2)N(C)CC[C@@]341	.	-12.7%[116 µM]
C[C@@H]1O[C@@H](O[C@H]2C[C@@H](O)[C@]3(CO)[C@H]4[C@H](O)C[C@]5(C)[C@@H](C6=CC(=O)OC6)CC[C@]5(O)[C@@H]4CC[C@]3(O)C2)[C@H](O)[C@H](O)[C@H]1O	.	?
CC(=O)O[C@@]12CO[C@H]1C[C@H](O)[C@@]1(C)C(=O)[C@H](O)C3=C(C)[C@@H](O)C[C@@](O)([C@@H](OC(=O)c4ccccc4)[C@@H]21)C3(C)C	.	-1.8%
N#Cc1cc2c(nc1SCC(=O)Nc1ccc(OC(F)(F)F)cc1)C1CCN2CC1	?	28.2µM*
CC(C)NCC(O)c1ccc([N+](=O)[O-])cc1 (stereo not drawn)	.	-5.6%
COc1cccc(-c2nn3c(=O)cc(CN4CCN(C(=O)COc5ccccc5C)CC4)nc3s2)c1	?	-10.2%
O=C(O)COc1ccccc1	.	45.6%[activator]
COP(=O)(OC)OC=C(Cl)Cl	.	7.0%
O=C(c1ccc2c(c1)N(Cc1c(F)cccc1Cl)C(=O)c1ccccc1S2)N1CCC2(CC1)OCCO2	-5.9%	-11.9%
CC(=O)Nc1ccc(OC[C@](C)(O)C(=O)Nc2ccc([N+](=O)[O-])c(C(F)(F)F)c2)cc1	.	-15.9%
CC(=Cc1csc(C)n1)[C@@H]1C[C@H]2O[C@]2(C)CCC[C@H](C)[C@@H](O)[C@@H](C)C(=O)C(C)(C)[C@@H](O)CC(=O)O1	.	-13.5%
O=C1OC(c2ccc(O)c(S(=O)(=O)O)c2)(c2ccc(O)c(S(=O)(=O)O)c2)c2c(Br)c(Br)c(Br)c(Br)c21	.	-5.0%
COc1cc(OC)cc(C(=O)Nc2ccc(Cl)cc2C(=O)c2ccccc2Cl)c1	2.0%	-0.6%
C[C@]12CC[C@@H]3c4ccc(OC(=O)N(CCCl)CCCl)cc4CC[C@H]3[C@@H]1CC[C@@H]2OP(=O)(O)O	.	15.4%
C[C@@H]1O[C@@H](O[C@@H]2C=C3CC[C@@H]4[C@@H](CC[C@]5(C)[C@H](c6ccc(=O)oc6)CC[C@@]45O)[C@@]3(C)CC2)[C@H](O)[C@H](O)[C@H]1O	.	?
Oc1c(Br)cc(Br)cc1Br	.	18.3%
O=C(CCc1nc(C2=CCN(Cc3cccc(Cl)c3)CC2)no1)Nc1ccccc1F	?	-32.7%
CCc1ccc(C2CCNCC2)cc1	.	-6.0%
The results go on.
SMILES	PMP22 txn prim	HTT promoter inh
C[C@]12CC[C@@H]3c4ccc(OC(=O)N(CCCl)CCCl)cc4CC[C@H]3[C@@H]1CC[C@@H]2O	.	-8.0%
CCN[C@@H](C)Cc1cccc(C(F)(F)F)c1	.	-0.4%
CN(C)[C@@H]1C(=O)C(C(N)=O)=C(O)[C@@]2(O)C(=O)C3=C(O)c4c(O)cccc4[C@@](C)(O)[C@H]3[C@H](O)[C@@H]12	.	-1.3%
C[C@@H]1CC[C@@]2(OC1)O[C@H]1C[C@H]3[C@@H]4CC=C5C[C@@H](O[C@@H]6O[C@H](CO)[C@@H](O[C@@H]7O[C@@H](C)[C@H](O)[C@@H](O)[C@@H]7O)[C@H](O)[C@@H]6O[C@@H]6O[C@@H](C)[C@H](O)[C@@H](O)[C@@H]6O)CC[C@]5(C)[C@@H]4CC[C@]3(C)[C@@H]1[C@H]2C	.	-5.6%
Nc1ccc(Cl)cc1N	.	22.0%[116 µM]
O=C(O)Cc1ccccc1	.	-4.0%
CC(C)c1ccc(OCC(=O)N2CCN(CCc3ccccn3)CC2)cc1	-19.2%	-15.8%
O=C1C=CC[C@@H]2[C@H]3CCCN4CCC[C@@H](CN12)[C@@H]34	.	-47.9%
CCOc1ccc(CN(CCc2ccc3c(c2)OCO3)Cc2ccc(OC)c(Br)c2)cc1	-26.2%	-22.3%
O=c1c(C2CC(c3ccc(-c4ccc(Br)cc4)cc3)Cc3ccccc32)c(O)sc2ccccc12 (stereo not drawn)	.	-26.2%
CC(C)c1c(CN(C)C(C)Cc2ccccc2)n(C)n(-c2ccccc2)c1=O (stereo not drawn)	.	5.2%
Cc1ccc2c(c1)C1CN(C)CCC1N2 (stereo not drawn)	.	4.4%[25.2 µM]
Cc1cccc(-n2nc(C)c3c2NC(=O)CSC3c2ccccc2Cl)c1 (stereo not drawn)	-24.4%	?
CCCSc1nc2ccccc2c(=O)n1-c1ccccc1OC	-15.9%	-20.8%
Cc1ccc(OCC(=O)N2CCN(Cc3ccc(F)cc3)CC2)cc1	2.6%	-26.0%
CCCC(C)(COC(N)=O)COC(=O)NC(C)C (stereo not drawn)	.	0.8%&8.2%
O=C(CCCN1CCC2(CC1)C(=O)NCN2c1ccccc1)c1ccc(F)cc1	.	7.2%
CCN(CC)C(=O)c1ccc(NC(=O)COc2ccc(-c3nn(C)c(=O)c4ccccc34)cc2)cc1	?	?
CC(C)NC(C)C	.	10.0%
Cc1cccc2sc(NC(=O)c3cccn(Cc4ccccc4)c3=O)nc12	-29.9%	0.0%
C[C@@H]1CC[C@H]2[C@@H](C)C(=O)O[C@@H]3O[C@@]4(C)CC[C@@H]1[C@]32OO4	.	-10.7%
CCc1cc2c(s1)-n1c(C)nnc1CN=C2c1ccccc1Cl	.	7.3%
O=C1CC[C@@]2(O)[C@H]3Cc4ccc(O)c5c4[C@@]2(CCN3CC2CC2)[C@H]1O5	.	5.8%&18.4%
CC(=O)c1cccc(NC(=O)c2cccn(Cc3cccc(C)c3)c2=O)c1	?	-20.7%
Oc1ccc(Cl)cc1	.	12.3%
CC[n+]1c(-c2ccccc2)c2cc(N)ccc2c2ccc(N)cc21	.	-27.6%
O=C(Nc1ccc(Cl)cc1C(=O)c1ccccc1)c1cc(Cl)cc(Cl)c1	-22.6%	-2.3%
C#C[C@]1(O)C=C[C@@H]2[C@@H]3CCC4=CC(=O)CC[C@@H]4[C@H]3CC[C@@]21CC	.	1.4%
c1cnc2c(c1)ncn2C1CCNCC1	3.4%	0.0%
CCCN1CCO[C@@H]2c3cc(O)ccc3OC[C@@H]21	.	-0.4%
C=CCC1=C(C)C(OC(=O)C2C(C=C(C)C)C2(C)C)CC1=O (stereo not drawn)	.	-17.3%[116 µM]
O=C(Nc1ccc(OC(F)(F)F)cc1)c1cccn(Cc2ccccc2Cl)c1=O	-20.7%	?
Cc1ccccc1Cn1cccc(C(=O)Nc2nc3ccccc3s2)c1=O	-12.8%	0.316µM*
C[C@@H]1O[C@@H](O[C@@H]2C=C3CC[C@@H]4[C@H](CC[C@]5(C)[C@@H](c6ccc(=O)oc6)CC[C@]45O)[C@@]3(C)CC2)[C@H](O)[C@H](O)[C@H]1O	.	-39.9%
N#Cc1cc2c(nc1SCC(=O)Nc1cccc(C(F)(F)F)c1)C1CCN2CC1	?	?
O=S1(=O)N(Cc2ccccc2)CCCN1Cc1ccc(F)cc1Cl	1.8%	-0.9%
OCCOc1ccccc1	.	10.2%
CN1CC[C@]23c4c5ccc(O)c4O[C@H]2[C@@H](O)CC[C@H]3[C@H]1C5	.	-2.9%[116 µM]
ClCc1cccc(Cl)c1	.	-4.0%
O=c1oc2ccccc2c(O)c1Cc1c(O)c2ccccc2oc1=O	.	4.2%
O=C(Nc1ccc(Br)cc1C(=O)c1ccccc1)c1ccccc1	4.8%	-0.8%

An excerpt from above in order of length of the SMILES, descending:
SMILES	PMP22 txn prim	HTT promoter inh
C[C@@H]1O[C@@H](O[C@@H]2C=C3CC[C@@H]4[C@H](CC[C@]5(C)[C@@H](c6ccc(=O)oc6)CC[C@]45O)[C@@]3(C)CC2)[C@H](O)[C@H](O)[C@H]1O	.	-39.9%
C#C[C@]1(O)C=C[C@@H]2[C@@H]3CCC4=CC(=O)CC[C@@H]4[C@H]3CC[C@@]21CC	.	1.4%
CN1CC[C@]23c4c5ccc(O)c4O[C@H]2[C@@H](O)CC[C@H]3[C@H]1C5	.	-2.9%[116 µM]
N#Cc1cc2c(nc1SCC(=O)Nc1cccc(C(F)(F)F)c1)C1CCN2CC1	?	?
O=C(Nc1ccc(OC(F)(F)F)cc1)c1cccn(Cc2ccccc2Cl)c1=O	-20.7%	?
O=C(Nc1ccc(Cl)cc1C(=O)c1ccccc1)c1cc(Cl)cc(Cl)c1	-22.6%	-2.3%
C=CCC1=C(C)C(OC(=O)C2C(C=C(C)C)C2(C)C)CC1=O (stereo not drawn)	.	-17.3%[116 µM]
CC[n+]1c(-c2ccccc2)c2cc(N)ccc2c2ccc(N)cc21	.	-27.6%
Cc1ccccc1Cn1cccc(C(=O)Nc2nc3ccccc3s2)c1=O	-12.8%	0.316µM*
O=C(Nc1ccc(Br)cc1C(=O)c1ccccc1)c1ccccc1	4.8%	-0.8%
CCCN1CCO[C@@H]2c3cc(O)ccc3OC[C@@H]21	.	-0.4%
c1cnc2c(c1)ncn2C1CCNCC1	3.4%	0.0%
ClCc1cccc(Cl)c1	.	-4.0%
Oc1ccc(Cl)cc1	.	12.3%
